PMP22 txn: PMP22 gene transcription modulation. S16 Pmp22-F2sN Schwann cells (luciferase reporters placed in the Pmp22 gene), FLuc/NLuc coincidence luminescence, 24 h. Potency, µM (doses to about 57.5 µM), for the others: at the top dose activity change, negative = inhibition, hits mostly inhibitors. actives 2% (n = 43,000). AID 1508649; active = clear falling dose curves in both reporters; inconclusive = both reporters move, but less clearly or upward; inactive = either reporter flat; the % is the NLuc reporter signal; also: % is scaled to controls: 0 for no effect and ±100 for the full control effect; some results filed as inactive show a strong effect at the top dose
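Transcriptional readout in edited S16(c9) cells: two luciferases reported from the Pmp22 locus, measured in turn after 24 h compound incubation.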
HTT promoter inh: inhibits huntingtin promoter activity | HEK293 HTT promoter firefly luciferase reporter (activity 0% = vehicle and -100% = no light), 24 h | Potency, µM (series often up to 57.5 µM), for inactives: top-dose activity change, negative = inhibition, usual class: inhibitors | AID 1508623 | actives 0.93% (n = 48,000); active = well fitted inhibition curve with a large enough effect; inconclusive = small, poorly fitted or top-dose-only effect; inactive = no such curve, though single readings can be large or run the other way; also: nearly all actives have a fitted effect of over 50% in size
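Firefly luciferase signal from promoter-reporter HEK293 cells was scaled between vehicle (0%) and zero RLU (-100%). Compounds were tested at final concentrations of up to 57.5 uM over 24 h at 37 degrees C. PTC124 at 50 uM final served as control inhibitor.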
* marks the source's active call; other numbers are inactive results; ? = inconclusive; / = no result given; & = joins results of further samples; [ ] = remark or other dose. Potency is read from the fitted curve at half-maximal effect.

(1) Cc1cn([C@@H]2O[C@H](CO)[C@@H](O)[C@H]2F)c(=O)[nH]c1=O
(2) Cc1cccc(C=NNc2cc(N3CCOCC3)nc(OCCc3ccccn3)n2)c1
(3) CCOC(=O)N1CCC(Nc2ccc(Cl)cc2N)CC1
(4) COc1ccc(CC(=O)NCC(c2cccs2)S(=O)(=O)c2ccc(Cl)cc2)cc1 (stereo not drawn)
(5) CCOC(=O)c1ccc(N)cc1

entry no.	1	2	3	4	5
PMP22 txn	/	/	/	0.8%	/
HTT promoter inh	13.7%	?	-17.0%	-21.4%	-17.0%

(6) CC1(C)Cc2c(sc(NC(=S)NC(=O)c3ccccc3)c2C(=O)O)CO1
(7) c1cc(OCCN2CCCCC2)cc(-c2n[nH]c3ccc(-c4ncn[nH]4)cc23)c1
(8) COC(=O)c1nc(Cl)c(Cl)nc1N
(9) Cc1[nH]n2c(=O)cc(-c3ccc(Cl)cc3)nc2c1-c1ccccc1
(10) CC(=O)NC(Cc1ccccc1)C(=O)O (stereo not drawn)

entry no.	6	7	8	9	10
PMP22 txn	/	/	/	8.53µM*	/
HTT promoter inh	-22.4%	-24.6%	?	?	0.1%

(11) CC1(C)O[C@@H]2C[C@@H]3[C@H]4C[C@@H](F)C5=CC(=O)C=C[C@]5(C)[C@@]4(F)[C@@H](O)C[C@]3(C)[C@]2(C(=O)CO)O1
(12) Cc1oc(=O)oc1CN1CCN(c2cc3c(cc2F)c(=O)c(C(=O)O)c2n3C(C)S2)CC1 (stereo not drawn)
(13) Cc1nc(N)sc1-c1ccnc(Nc2ccc(N3CCOCC3)cc2)n1
(14) COc1ccc(C(=O)NCc2ccc(OCCN(C)C)cc2)cc1OC
(15) COc1cc(C(c2c(C)[nH][nH]c2=O)c2c(C)[nH][nH]c2=O)ccc1OC(=O)c1ccccc1F

entry no.	11	12	13	14	15
PMP22 txn	/	/	/	/	-19.8%
HTT promoter inh	-3.8%	6.5%&-1.9%	-25.7%	5.5%	-15.0%[11.5 µM]

(16) Nc1nnnn1-c1ccccc1
(17) COc1ccc(Cn2ccc3ccc(C(=O)NO)cc32)cc1
(18) O=C(CO)N1CCC(c2[nH]nc(-c3ccc(Cl)cc3)c2-c2ccncn2)CC1
(19) CC(C)C(=O)Nc1cccc(C(F)(F)F)c1
(20) Cc1c(NC(=O)c2cccnc2)c(=O)n(-c2ccccc2)n1C

entry no.	16	17	18	19	20
PMP22 txn	/	/	/	/	/
HTT promoter inh	-2.5%	?	-10.8%	-2.9%	6.3%

(21) OCCN1CCN(CCCN2c3ccccc3Sc3ccc(Cl)cc32)CC1
(22) O=C(CCNNC(=O)c1ccncc1)NCc1ccccc1
(23) CCCNC(C)C(=O)Nc1c(C)csc1C(=O)OC (stereo not drawn)
(24) Cc1ccccc1C(=O)Nc1ccc(C(=O)N2CCCC(O)c3cc(Cl)ccc32)c(C)c1 (stereo not drawn)
(25) CNc1nc(Nc2ccc(C(=O)N3CCOCC3)cc2OC)ncc1Cl

entry no.	21	22	23	24	25
PMP22 txn	/	/	/	/	/
HTT promoter inh	-18.2%	-6.2%	34.3%	-22.2%	-4.5%

(26) C/C=C(/C(=C/C)c1ccc(OC(C)=O)cc1)c1ccc(OC(C)=O)cc1
(27) CCN(CC)CCNC(=O)c1cc(Cl)c(N)cc1OC
(28) CC(C(=O)O)c1ccc(C(=O)c2cccs2)cc1 (stereo not drawn)
(29) O=C(Nc1cc2cc[nH]c2cn1)c1ccccc1
(30) Oc1ccc(C=Cc2cc(O)cc(O)c2)cc1

entry no.	26	27	28	29	30
PMP22 txn	/	/	/	/	/
HTT promoter inh	-11.4%	6.7%	13.0%	20.7%	19.9%

Structural class, the compounds so far containing a Cl atom.
(3) CCOC(=O)N1CCC(Nc2ccc(Cl)cc2N)CC1
(4) COc1ccc(CC(=O)NCC(c2cccs2)S(=O)(=O)c2ccc(Cl)cc2)cc1 (stereo not drawn)
(8) COC(=O)c1nc(Cl)c(Cl)nc1N
(9) Cc1[nH]n2c(=O)cc(-c3ccc(Cl)cc3)nc2c1-c1ccccc1
(18) O=C(CO)N1CCC(c2[nH]nc(-c3ccc(Cl)cc3)c2-c2ccncn2)CC1
(21) OCCN1CCN(CCCN2c3ccccc3Sc3ccc(Cl)cc32)CC1
(24) Cc1ccccc1C(=O)Nc1ccc(C(=O)N2CCCC(O)c3cc(Cl)ccc32)c(C)c1 (stereo not drawn)

entry no.	3	4	8	9	18	21	24
PMP22 txn	/	0.8%	/	8.53µM*	/	/	/
HTT promoter inh	-17.0%	-21.4%	?	?	-10.8%	-18.2%	-22.2%

(25) CNc1nc(Nc2ccc(C(=O)N3CCOCC3)cc2OC)ncc1Cl
(27) CCN(CC)CCNC(=O)c1cc(Cl)c(N)cc1OC

entry no.	25	27
PMP22 txn	/	/
HTT promoter inh	-4.5%	6.7%

Next section.
(31) COc1ccc(-n2nc(C(N)=O)c3c2C(=O)N(c2ccc(N4CCCCC4=O)cc2)CC3)cc1
(32) COC(=O)c1ccc(O)cc1
(33) Cc1nc(NC(=O)N2CCC[C@@H]2C(N)=O)sc1-c1ccnc(C(C)(C)C(F)(F)F)c1
(34) CC12CCC(CC1)C(C)(C)O2
(35) CCc1nnc(NC(=O)CSc2nc3c([nH]c4ccccc43)c(=O)n2-c2ccc(OC)cc2)s1

entry no.	31	32	33	34	35
PMP22 txn	/	/	/	/	5.0%
HTT promoter inh	-6.3%	19.0%	-22.3%	13.0%	?

(36) CCOC(=O)c1ccc(OCCN2C[C@H](O)[C@@H](O)[C@H](O)[C@H]2CO)cc1
(37) C/C(=C1\CCOC(=O)S1)N(C=O)Cc1cnc(C)nc1N
(38) O=C(CCN1CCC(c2ccccc2)C1)c1ccc2c(c1)OCCO2 (stereo not drawn)
(39) CCOCCCNC(=O)C(=O)Nc1c2c(nn1-c1ccc(OC)cc1)CSC2
(40) CC=CC(=O)N(CC)c1ccccc1C

entry no.	36	37	38	39	40
PMP22 txn	/	/	/	26.2%	/
HTT promoter inh	-0.4%	-0.9%	25.1%	-16.8%	-9.6%

(41) CC(CC(C#N)(c1ccccc1)C(C)C)N(C)C (stereo not drawn)
(42) Cc1nc(C(=O)NCC(=O)O)c(O)c2ccc(Oc3ccccc3)cc12
(43) COCC(=O)NCC=Cc1ccc2ncnc(Nc3ccc(Oc4ccc(C)nc4)c(C)c3)c2c1
(44) Cc1ccc(C(=O)Oc2ccc(C(O)CNC(C)(C)C)cc2OC(=O)c2ccc(C)cc2)cc1 (stereo not drawn)
(45) Cc1cc(Nc2cc(N3CCN(C)CC3)nc(C=Cc3ccccc3)n2)n[nH]1

entry no.	41	42	43	44	45
PMP22 txn	/	/	/	/	/
HTT promoter inh	-2.8%	5.1%	?	1.6%	?

(46) Cc1cc(-c2ccccc2)nnc1NCCN1CCOCC1
(47) O=C(O)c1ccc[n+]([O-])c1
(48) NC(=O)c1cn(Cc2c(F)cccc2F)nn1
(49) CCOC(=O)C(=O)CCc1ccccc1
(50) COCCCOc1cc(C[C@@H](C[C@H](N)[C@@H](O)C[C@H](C(=O)NCC(C)(C)C(N)=O)C(C)C)C(C)C)ccc1OC

entry no.	46	47	48	49	50
PMP22 txn	/	/	/	/	/
HTT promoter inh	3.8%	2.8%	0.1%	3.0%	6.9%&3.6%

(51) OC(C#CCN1CCCC1)(c1ccccc1)c1ccccc1
(52) CCOC(=O)N1CCc2c(sc3c2c(=O)n(Cc2ccccc2)c(=O)n3CC(=O)Nc2ccc(F)cc2)C1
(53) CC(=O)Nc1ccc(C(=O)O)cc1
(54) CCN(CC)CCn1c(=O)c(Cc2ccc(OC)cc2)nc2ccccc21
(55) COc1ccc(-n2nc(CCC(=O)N(C)O)cc2-c2ccc(Cl)cc2)cc1

entry no.	51	52	53	54	55
PMP22 txn	/	-2.6%	/	/	/
HTT promoter inh	-2.3%	-16.4%	8.7%	-2.1%	-13.0%

Reprinted at random: 2 records from the list, in no set order.
(52) CCOC(=O)N1CCc2c(sc3c2c(=O)n(Cc2ccccc2)c(=O)n3CC(=O)Nc2ccc(F)cc2)C1
(53) CC(=O)Nc1ccc(C(=O)O)cc1

entry no.	52	53
PMP22 txn	-2.6%	/
HTT promoter inh	-16.4%	8.7%

The list goes on:
(56) Nc1nc(=O)n([C@@H]2O[C@H](CO)[C@@H](O)[C@@H]2F)cc1I
(57) CCOc1ccc(NC(=O)Cn2cc(C(=O)c3ccco3)c3ccccc32)cc1
(58) CCC[C@H](N[C@@H](C)C(=O)N1[C@@H]2CCCC[C@H]2C[C@H]1C(=O)O)C(=O)OCC
(59) COc1c(Cl)cc2c([nH]c3cnccc32)c1NC(=O)c1cccnc1C
(60) COc1ccc(-n2ccn(CC(=O)Nc3ccc(C)c(C)c3)c(=O)c2=O)cc1OC

entry no.	56	57	58	59	60
PMP22 txn	/	0.3%	/	/	10.6%
HTT promoter inh	4.8%	-1.4%	-2.1%	4.6%	-15.3%

(61) CN1CCN(CCC(=O)N2c3ccccc3Sc3ccc(C(F)(F)F)cc32)CC1
(62) Cc1cc(Nc2cc(N3CCN(C)CC3)nc(Sc3ccc(NC(=O)C4CC4)cc3)n2)n[nH]1
(63) CC1COc2c(N3CCN(C)CC3)c(F)cc3c(=O)c(C(=O)O)cn1c23 (stereo not drawn)
(64) CN1CCN(C(c2ccccc2)c2ccccc2)CC1
(65) O=C(CC1N=C2c3ccccc3N=C(SCc3ccc(F)cc3)N2C1=O)NC1CCCCC1 (stereo not drawn)
(66) NS(=O)(=O)c1ccc(NC2=CC(=O)c3ccccc3C2=O)cc1
(67) CC(=O)c1ccc(S(=O)(=O)NC(=O)NC2CCCCC2)cc1
(68) CN(C(=O)CCCOc1ccc2[nH]c(=O)ccc2c1)C1CCCCC1

entry no.	61	62	63	64	65	66	67	68
PMP22 txn	/	/	/	/	?	/	/	/
HTT promoter inh	?	-8.4%	5.8%&2.0%	0.1%	?	-10.2%	13.1%	-0.8%

Source: PubChem BioAssay

An excerpt; the hit share may differ from the screen's.
